NPYLR7 agonist – mosquito NPYLR7 agonism; activation, % at 10 µM; HEK293T NPYLR7/Galpha15, GCaMP6s calcium fluorescence; 0.15% of 270,000 active; in the data active = activation above about 40%;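 note: 0% = vehicle and 100% = reference agonist at the receptor; some compounds past the cut are filed as inactive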
NPYLR7 agonist max-min – second read-out of NPYLR7 agonist, no call of its own (marks repeat the call); activation, %; measured here: Max-Min RFU normalised activation; some inactives read as strong as hits;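 span of the calcium signal over five minutes; 0% = vehicle and 100% = native peptide agonist; compound fluorescence can raise it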
Active calls of the source: *; & = joins results of further samples. A portion of the library; count on the stated rates, not on these rows.

SMILES	NPYLR7 agonist	NPYLR7 agonist max-min
Cc1nn(C(C)(C)C)c(OC(=O)C(C)Oc2ccccc2)c1S(=O)(=O)c1ccccc1 (configuration not stated)	2	38
O=C(CSc1nc2c(c(=O)n1Cc1ccccc1)SCC2)N1CCc2ccccc21	8	-3
Cc1ccc(-n2nnnc2SCc2nc3ccccc3o2)c(C)c1	-2	-2
Cc1ccccc1CSC1=NS(=O)(=O)c2ccccc2N1	7	2
CC(NS(=O)(=O)c1cccc2nsnc12)c1cccc(S(N)(=O)=O)c1 (configuration not stated)	8	4
Cc1cc2oc(=O)cc(C)c2cc1NC(=O)c1cnc(CN2CCCC2)s1	5	-3
Cc1ccc(OCCN(C)C(=O)CCc2nnc(-c3cc(C)on3)o2)cc1	-7	-12
CN(C)P(Cc1ccccc1)(Cc1ccccc1)=Nc1ccccc1	-3	7
COC(=O)C(C)NC(=O)C1CCN(S(=O)(=O)c2ccc(Cl)c(C(F)(F)F)c2)CC1 (configuration not stated)	1	2
COC(=O)C1Cc2ccccc2CN1C(=O)c1cc2c(C)nn(Cc3ccccc3)c2s1 (configuration not stated)	5	1
CS(=O)(=O)c1ccc2nc(NC(=O)CCc3nc4ccccc4c(=O)[nH]3)sc2c1	-1	0
Fc1ccccc1-n1ncc2c1CCCC2NCc1ccc(C#Cc2cncnc2)cc1 (configuration not stated)	-1	-3
CN(C)c1nc(N)nc(CSc2nc3ccccc3o2)n1	-1	4
O=C(NC1C[C@@H]1c1ccccc1)c1cncn1-c1cccc(-c2cccc(OC(F)(F)F)c2)c1 (some centres not stated)	7	0
O=C(O)CCc1ccc(-c2ccc(Cl)cc2)[nH]1	20	15
CC(NC(=O)CN(C)CC(=O)Nc1ccc(Cl)c(Cl)c1)c1ccco1 (configuration not stated)	2	4
COc1ccc(N2CCN(C(=O)c3ccc(CSc4nc(Cl)cc(N5CCN(c6ccccc6Cl)CC5)n4)cc3)CC2)cc1	28	28
COc1cc(NC(=O)c2cc(=O)c(OC)co2)cc(OC)c1OC	10	2
Cc1ccc(CSc2ncc(CO)n2CC(=O)NC2CC2)cc1	2	1
CN(C)c1cccc(Nc2ccc3c(-c4cccnc4)noc3n2)c1	-1	-3
CC(C)CN1CCCC1c1ccc(C(=O)Nc2cnn(C)n2)s1 (configuration not stated)	17	7
COc1ccccc1C(=O)Nc1c(C)nc2scc(C)n2c1=O	9	9
Cc1ccccc1-c1cccc(CN2CCOCC(CN(C)C)C2)c1 (configuration not stated)	-4	-11
Cc1ncc([N+](=O)[O-])n1CCc1nn[nH]n1	5	4
CCOc1ccc(C(=O)n2sc(=O)c3ccccc32)cc1	4	-1
CCOC(=O)c1nn(-c2ccc(Cl)cc2)cc1O	2	0
COC(=O)c1cn(CCC#N)nc1-c1ccc(OC)cc1	-6	-13
O=Cc1cc(-c2ccccc2)oc1Cl	-8	-15
CC(c1ccccn1)N(C)C(=O)c1cn(CCC2CCCCC2)nn1 (configuration not stated)	2	-1
CCOc1ccc(C(=O)Nc2ccc(Nc3ccc(-n4cccn4)nn3)cc2)cc1OCC	-5	-12
Cc1nc2ccccn2c1C(=O)OCc1cc(-c2ccc(F)cc2F)on1	-1	-3
CCC(C)N(CC(=O)N(CCc1ccc(OC)c(OC)c1)Cc1ccco1)C(=O)Nc1ccccc1OC (configuration not stated)	-9	-6
CCOC(=O)CC1COCCN1C(=O)c1ccc2cccc(F)c2n1 (configuration not stated)	-9	-15
CCCCCn1[nH]c(C)c(C(=O)c2ccc(C(=O)c3c(C)[nH]n(CCCCC)c3=O)cc2)c1=O	2	51
O=C(CON=Cc1ccccc1Cl)N=Nc1c(O)n(CN2CCCCCC2)c2ccccc12	-5	-8
O=C1NN=CCc2c1cnc1ncnn21	3	2
CCOc1ccc2nc(N(Cc3cccnc3)C(=O)c3ccnn3CC)sc2c1	5	5
CCn1c(=O)c(C(=O)CN2CCCc3ccccc32)c(N)n(Cc2ccccc2)c1=O	0	0
CN(CCOc1ccc(Cl)cc1)C(=O)CSc1nnc(-c2cccs2)o1	2	-2
CCc1nn(CC(=O)O)c(=O)c2cc3sc(C)cc3n12	-1	-1
CC(C)c1nc(C(=O)N(CCN(C)C)CC2CCCN(Cc3ccccc3F)C2)cs1 (configuration not stated)	11	0
Cc1ccsc1CN(CCN1CCOCC1)Cc1ccc(C(O)(c2cccc(F)c2)c2cccc(F)c2)o1	0	-3
COc1cccc(Cn2c(=O)c(C(=O)NCC3CC3)nn(-c3ccc(C)cc3)c2=O)c1	15	10
CCOC(=O)c1cc(-c2ccc(N3CCN(C(=O)c4cc(C)nn4C)CC3)cc2)n(-c2ccccn2)n1	24	15
CCN(CC)CCCC(C)NC(=O)c1cc(-c2ccc([N+](=O)[O-])cc2)nn1-c1cccc(Cl)c1 (configuration not stated)	-7	-7
FC(F)n1ccnc1COc1ccc(Br)cc1	16	12
Cc1cc(N2C(=O)c3oc4ccc(F)cc4c(=O)c3C2c2cccnc2)no1 (configuration not stated)	3	1
Brc1ccc(-c2noc(Cc3cccs3)n2)o1	0	-2
Cc1cccc(NC(=O)c2cnn(-c3ccc(=O)[nH]n3)c2C)c1C(=O)N1CCCC1	-6	-9
Cc1ccc(-c2nc(C)c(Cc3ccccc3)c(N3CCN(C(=O)Nc4cccc5ccccc45)CC3)n2)cc1	-3	7
Additional structures follow:
SMILES	NPYLR7 agonist	NPYLR7 agonist max-min
COC(=O)c1ccccc1NC(=O)Cn1ncn2nc(-c3ccc(C)c(C)c3)cc2c1=O	-12	-16
Cc1ncc(CN(C)CC(O)COCC2=CCC3CC2C3(C)C)s1 (configuration not stated)	-2	-14
Cc1ccc(Cl)c(CN2CCN(C)C(C(=O)O)C2)c1F (configuration not stated)	5	-8
O=C(NNC(=O)c1ccco1)c1ccc2ccccc2c1	1	-4
CCCCNS(=O)(=O)c1ccc2c(c1)C(=C(C#N)C#N)c1cc(S(=O)(=O)NCCCC)ccc1-2	-1	-2
CCN(CC)C(=O)CCNC(=O)c1sccc1NC(=O)c1ccncc1	6	6
COc1cc(Nc2cc3c(cn2)nc(Cc2cccnc2)n3C)cc(OC)c1OC	1	0
CCCCCOc1ccc(C(=O)NC(Cc2ccccc2)C(=O)OC)cc1OCCCCC (configuration not stated)	-5	-11
Cn1ccc(NC(=O)C2(c3cccc(Br)c3)CCCC2)n1	7	5
O=C(c1ccc(F)cc1)N(Cc1c(-c2ccccc2)noc1N1CCCCC1)CC1CCCO1 (configuration not stated)	-4	12
COC(=O)c1ccc(CN(Cc2ccsc2)Cc2ccco2)o1	-1	10
Cc1cc2cc(CNC(=O)Cc3ccccc3)ccc2n1C	4	1
O=C(COc1ccccc1)NCCn1nc(-c2cccs2)ccc1=O	3	1
Cc1cc(NC(=O)Cn2cnc3ccccc32)no1	15	14
CC1=NN(c2ccccc2)C(=O)/C1=C\c1ccc(N(C)C)c(Br)c1	-2	6
O=C(c1ccccc1Br)N1CCN(CCN2C(=O)c3cccc4cccc(c34)C2=O)CC1	-3	-8
Cc1nnc(SCC(=O)N2CCc3c(cc(-c4cccc(Cl)c4)c(=O)n3CC3CC3)C2)o1	8	-3
CCCCc1ccc(-c2nc(-c3ccncc3)no2)cc1	-9	-16
C=CCOC1C[C@](OCc2cccc(F)c2)(C(=O)NCC(C)C)C[C@H]2OC(C)(C)O[C@@H]12 (some centres not stated)	10	19
Cc1nnn(C23CC4CC(CC(NCC(=O)NCc5ccccc5F)(C4)C2)C3)n1	21	8
CCOC(=O)C1(Cc2ccccc2C(F)(F)F)CCN(C(=O)C#Cc2ccccc2)CC1	-1	-9
CNC(=O)NC(=O)COC(=O)C=Cc1ccco1	0	-2
CCCn1nccc1C(=O)N(C)C(C)c1cccs1 (configuration not stated)	3	-4
CCc1nc2ccc(C(=O)Nc3cccc(OCC(=O)N(C)C)c3)cn2c1N(C)C(=O)COc1ccccc1	-6	-10
CCCc1nnc(-c2cc3ccccc3n2CC(=O)NC(C)C)o1	1	1
CCn1c(NNC(=O)c2ccc3c(c2)nnn3CC)nc2ccccc2c1=O	4	0
CN(Cc1ccccc1)C(=O)CCC1CCN(C(=O)c2ccoc2)CC1	9	4
Cc1c(C(=O)N2CCN(c3ccccc3Cl)CC2)cc(-c2ccccc2)n1-c1ccc(F)cc1	5	9
CN1c2cc3c(cc2N=C(c2ccc(C(=O)O)cc2)c2ccccc21)C(C)(C)CCC3(C)C	-20	-23
Cc1ccc(OCCCCNC(=O)c2ccc(Br)o2)cc1	11	3
CN1CC(NS(=O)(=O)Cc2ccccc2C(F)(F)F)CC1=O (configuration not stated)	10	10
COc1ccccc1CCN1CCC(CN(C)C(=O)Cc2ccsc2)CC1	5	4
CCc1nc2c(OCCc3cccc(OC)c3)cccn2c1N(C)C(=O)C(C)C	6	9
CCOC(=O)C1(CCCc2ccccc2)CCN(C(=O)c2ccc(OC)nc2OC)CC1	23	18
O=C(N1CCOCC1)C(F)(F)S(=O)(=O)Oc1ccccc1	12	12
Cc1ccc(CN(CCc2ccccc2)C(=O)CN(CCN2CCCCC2)C(=O)c2ccc(Cl)cc2Cl)o1	-1	5
CCOC(=O)N1CCC(N2CCC(n3nccc3NC(=O)C3CCCC3)CC2)CC1	5&3	3&1
Cc1nn(C)c2c1C(c1cccc(OCCCn3ccnc3)c1)CC(=O)N2 (configuration not stated)	0	-3
CC(C)c1ccc(C(O)Cn2nc(N3CCCC3)sc2=S)cc1 (configuration not stated)	-3	-5
CCCC12CN(C(=O)CC)CC(CCC)(CN(C(=O)CC)C1)C2=O	3	0
CC1=CC(=NNC(=O)C(=O)NN=C2C=C(C)CC2)CC1	0	-5
CCCCC1CC(CN2C(=O)NC(C)(C)C2=O)OC1=O (configuration not stated)	3	-3
COc1ccc(CCN(Cc2ccc(C)o2)C(=O)CN(C(C)=O)C(C)C)cc1OC	14	17
Cc1cc(-c2cc(F)cc3c2OC(CN)C3)c2ccccc2n1 (configuration not stated)	7	-13
O=C(CC1COCCN1)N1CCN(C(=O)c2ccco2)CC1 (configuration not stated)	3	2
CCc1ccc(CN2CCCC(c3ccnc(SCCN4CCCC4)n3)C2)o1 (configuration not stated)	25	14
O=C(CCOc1ccc(F)cc1F)NCC1COc2ccccc2O1 (configuration not stated)	10	9
COc1cc(S(=O)(=O)N2CCCCC2)c(OC)cc1Br	1	1
CCn1nc(C(=O)NCCOC)cc1-c1ccsc1	5	5
CN1C(=O)C2(CCC2)ON=C1c1ccccc1	3	-2
Additional entries
SMILES	NPYLR7 agonist	NPYLR7 agonist max-min
CC1(N=Cc2ccncc2)CCS(=O)(=O)C1 (configuration not stated)	3&10	1&8
O=C(c1ccc2cc[nH]c2c1)N1CCOC(Cc2ccccc2)C1 (configuration not stated)	7	17
CCOC(=O)c1cc(-c2cccc(NC(=O)c3ccc(OC)c(OC)c3)c2)n(-c2cccc(F)c2)n1	4	-2
CC(C)NC(=O)c1ccc2c(c1)C(=O)c1ccccc1-2	-7	-9
Cc1ccsc1[C@@H]1CCN(Cc2cnc(-c3ccco3)nc2)C[C@H]1O	11	9
NC1=NC(=O)SC1=Cc1ccc(Cl)cc1	-4	0
Cc1cc([C@@H]2C[C@H](NC(=O)c3ccccc3)C[C@H](CC(C)C)O2)n[nH]1	2	2
CCCC(C)(C)C(=O)N1CCC1(C)C(=O)Nc1ccc(C)cc1 (configuration not stated)	3	2
COC(=O)c1cc(Cc2ccc(N)c(C(=O)OC)c2)ccc1N	-10	-9
O=C(NCc1ccccc1)c1cnn2c1NC(c1ccco1)CC2C(F)(F)F (configuration not stated)	-3	-10
CC(C)(C)c1cc2nc(C(=O)NCCN3CCCCC3)cc(-c3ccccc3F)n2n1	1	6
CNC(=O)c1ccc(C2CCCN2C(=O)c2cn[nH]n2)s1 (configuration not stated)	2	2
O=C(NCc1ccoc1)Nc1cccc(Cl)c1F	4	2
